Compound activity as filed in PubChem BioAssay.
KCNQ2 pot: KCNQ2 (rat) channel potentiation; O88943; CHO-K1 KCNQ2, FluxOR thallium flux fluorescence; hits give high values; B-score at 10 µM; 310,000 tested, 0.54% active; AID 2239;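 active = fluorescence ratio B-score at least 3 SD of library B-scores, with initial fluorescence B-score within 3 SD, cut at about 5.3 in these data; same plate scores as AID 2156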;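 note: B-score of peak minus minimum over baseline fluorescence ratio after K+ and Tl+ stimulus; positive B-score means potentiation of KCNQ2 with more thallium influx and brighter signal; only the inactives scoring about 0 or higher are listed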
Target sequence (O88943 whole entry, looked up): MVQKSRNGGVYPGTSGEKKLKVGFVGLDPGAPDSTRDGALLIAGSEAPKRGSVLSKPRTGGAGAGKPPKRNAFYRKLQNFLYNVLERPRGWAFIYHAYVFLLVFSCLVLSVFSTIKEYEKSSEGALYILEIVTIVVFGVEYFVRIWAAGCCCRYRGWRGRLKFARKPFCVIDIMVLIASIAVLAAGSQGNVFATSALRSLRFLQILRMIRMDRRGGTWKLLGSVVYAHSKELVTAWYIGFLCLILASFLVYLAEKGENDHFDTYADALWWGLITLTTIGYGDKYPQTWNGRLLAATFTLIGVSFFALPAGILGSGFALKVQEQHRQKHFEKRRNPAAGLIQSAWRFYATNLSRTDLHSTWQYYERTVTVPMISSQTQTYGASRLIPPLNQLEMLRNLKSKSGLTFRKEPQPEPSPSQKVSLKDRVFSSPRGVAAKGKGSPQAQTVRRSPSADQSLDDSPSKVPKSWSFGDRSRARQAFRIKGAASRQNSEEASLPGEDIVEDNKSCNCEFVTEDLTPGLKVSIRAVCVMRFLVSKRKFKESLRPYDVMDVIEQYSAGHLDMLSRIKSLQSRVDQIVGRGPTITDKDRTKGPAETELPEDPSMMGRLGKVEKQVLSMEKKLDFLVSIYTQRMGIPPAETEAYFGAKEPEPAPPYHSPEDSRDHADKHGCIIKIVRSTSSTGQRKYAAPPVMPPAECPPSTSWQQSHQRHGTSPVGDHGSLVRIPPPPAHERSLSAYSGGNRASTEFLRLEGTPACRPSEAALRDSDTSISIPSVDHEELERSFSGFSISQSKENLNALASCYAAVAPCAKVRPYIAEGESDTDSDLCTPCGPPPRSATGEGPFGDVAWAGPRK
KCNQ2 pot baseline: further read-out of KCNQ2 pot, marked with its call; B-score; compound at 10 µM; measured here: initial fluorescence intensity artifact check;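 brightness before thallium and not channel activity; 0 = typical well and far values either way flag optical interference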
Starred values were filed as active, the others as inactive. Not all compounds are listed. The share of hits here may be higher or lower than overall.

SMILES	KCNQ2 pot	KCNQ2 pot baseline
O=C1NCCCC1C(=O)N/N=C/c1ccccc1O (centres undefined)	0.09	0.61
Cc1nonc1C(=O)N1CCCC(Nc2ccc(C(C)C)cc2)C1 (centres undefined)	1.2	0.9
Cc1c(O)c(=O)ccn1C	0.04	0.08
CC1CN/C(=C\C(=O)c2ccccc2)C(=O)N1 (centres undefined)	1.6	0.01
Cc1c(O)ccc(C(=O)COc2ccc(F)cc2)c1O	0.88	1.1
Cc1cc(CNC(=O)c2cccc([N+](=O)[O-])c2)c2ccccc2n1	0.87	0.07
O=C(Nc1sc2c(c1C(=O)O)CCC2)c1ccccc1	1.4	0.67
CCSc1ccc(C(=O)Nc2cccc(C)n2)cc1[N+](=O)[O-]	1.3	-0.11
COc1ccccc1NC(=O)CCN1C(=O)/C(=C/c2cc(OC)c(OC)c(OC)c2)SC1=S	0.05	-1.3
Cc1nc(/C=C/c2ccccc2)[nH]c(=O)c1-c1ccccc1	1.2	0.45
CCOc1ccc(NC(=O)CC(=O)Nc2ccc(OCC)cc2)cc1	0.59	-2.9
CCCOc1ccc(/C(O)=C2\C(=O)C(=O)N(c3ccccn3)C2c2ccccc2F)cc1C (centres undefined)	0.94	-0.08
COc1cccc(C(=O)N/N=C(\C)CC(=O)Nc2ccc(N(C)C)cc2)c1	1.4	0.07
Cc1ccc(CNc2nc3ccccc3n3nnnc23)cc1	0.02	0.04
CCOc1ccc(/C=C/C(=O)OC(C)C(=O)NC2CCCCC2C)cc1OC (centres undefined)	0.21	-1.5

A draw from above in order of SMILES length, ascending:
SMILES	KCNQ2 pot	KCNQ2 pot baseline
Cc1c(O)c(=O)ccn1C	0.04	0.08
O=C1NCCCC1C(=O)N/N=C/c1ccccc1O (centres undefined)	0.09	0.61
Cc1nonc1C(=O)N1CCCC(Nc2ccc(C(C)C)cc2)C1 (centres undefined)	1.2	0.9
CCSc1ccc(C(=O)Nc2cccc(C)n2)cc1[N+](=O)[O-]	1.3	-0.11
CCOc1ccc(/C=C/C(=O)OC(C)C(=O)NC2CCCCC2C)cc1OC (centres undefined)	0.21	-1.5
COc1cccc(C(=O)N/N=C(\C)CC(=O)Nc2ccc(N(C)C)cc2)c1	1.4	0.07

The results go on:
SMILES	KCNQ2 pot	KCNQ2 pot baseline
O=C(CN1C(=O)C2CC=CCC2C1=O)NCC(=O)Nc1ccc(F)c(F)c1 (centres undefined)	0.11	-0.21
Cc1cccc(NC(=S)N(CCCN2CCOCC2)Cc2cn(C)c3ccccc23)c1	1.4	-0.54
Cc1ccc(S(=O)(=O)Oc2cccc(N3C(=O)C4CC=CCC4C3=O)c2)cc1 (centres undefined)	0.48	4.2
Cc1ccc(NS(=O)(=O)c2ccc(NC(=O)c3cccs3)cc2)cc1	0.29	0.6
Cc1[nH]n(-c2ccccc2)c(=O)c1N=Nc1ccc(C(=O)O)cc1	1.9	0.68
CCCCCCCOc1ccc(C(=O)Nc2cccnc2)cc1	0.87	-2.5
CCCCc1nc2cc(C(=O)N3CCNC(=O)C3CC(=O)OC)ccc2o1 (centres undefined)	0.68	2
Cc1cc(C)c2nc(NNC(=O)c3ccc(S(=O)(=O)N4CCCCC4)cc3)sc2c1	2.4	-1.9
CCOC(=O)c1c(C)n(C)c2cc(CN(C)C)c(O)c(S(=O)(=O)c3ccccc3)c12	0.51	2
CC1(C)OC2OC(C(=O)N/N=C/c3cc(Br)ccc3O)C3OC(C)(C)OC3C2O1 (centres undefined)	1.5	-0.5
COC(CNC(=O)c1cccc(-n2c(=S)[nH]c3cc(Cl)ccc3c2=O)c1)OC	1.3	0.59
CC(/C=N\NC(=O)CN1CCN(Cc2ccccc2)CC1)=C\c1ccco1	2.1	-0.17
CC1CCCCN1S(=O)(=O)c1csc(C(N)=O)c1 (centres undefined)	0.97	0.13
O=C(Nc1cccc(-c2cn3cccnc3n2)c1)c1ccco1	1.3	-0.22
Cc1ccc(NC(=O)Cc2nnc(SCC(=O)Nc3ccc(N4CCOCC4)cc3)n2C)cc1	0.01	0.24
Cc1cc(C)c(C#N)c(SCc2ccccc2[N+](=O)[O-])n1	1.2	-1.4
O=C(NCCN1CCOCC1)c1sc2cc(Cl)ccc2c1Cl	2.2	-0.38
COCc1cc(=O)[nH]c(/N=C(\N)Nc2ccc(C)cc2C)n1	0.22	0.61
CC(=O)Nc1ccc(-c2cc(C(=O)O)c3ccccc3n2)cc1	0.26	0.38
Cc1nn(CC(=O)NCCN2CCCCCC2)c(=O)c2nn(-c3ccccc3)c(C)c12	0.39	-0.2
COc1cc(C(=O)OCc2cc(=O)oc3c(C)c(C)ccc23)ccc1OC(F)F	0.42	0.22
Cc1cc2cc3c(N)[nH]nc3nc2cc1C	0.88	-0.64
O=C(Nc1cccnc1)c1ccc(CN2CCc3ccccc3C2)cc1	0.65	-1.3
CCCc1nnc(NC(=O)CCC(=O)N2CCC(Cc3ccccc3)CC2)s1	1	0.68
CC(C)Oc1cccc(C(=O)NC(=S)NCc2cccnc2)c1	0.74	0.98
CCOC(=O)CC(NC(=O)Cc1ccccc1)c1ccccc1Cl (centres undefined)	0.56	-0.1
O=C(O)c1cccc(CSc2nnc(-c3cccnc3)o2)c1	0.59	-0.85
Cc1nc(N)nc(SCc2ccc([N+](=O)[O-])cc2)c1N	0.13	0.8
Cc1nc2ccccn2c1C(=O)NNS(=O)(=O)c1ccc(Cl)cc1	1.2	-0.8
O=C(COC(=O)Cn1cnc2ccccc21)Nc1cccc([N+](=O)[O-])c1	0.45	1.6
COc1ccc(CNC(=O)/C=C/c2ccccc2[N+](=O)[O-])cc1	0.07	1.9
CC(C)(C)OC(=O)NCCCC[C@H](NC(=O)c1nc[nH]c1C(=O)NCc1ccc(CNC(=O)OC(C)(C)C)cc1)C(=O)OC(C)(C)C	0.03	-1.3
Cc1ccc(N(Cc2cc(=O)[nH]c3ccccc23)C(=O)C(C)C)c(C)c1	1	-2.9
Cc1ccc(S(=O)(=O)N(C)C)cc1NC(=O)COC(=O)c1n[nH]c(=O)c2ccccc12	1.9	-0.29
COc1cc(C(=O)N/N=C/c2cn(Cc3cccc(F)c3)c3ccccc23)ccc1O	1.1	0.07
CC(OC(=O)CCCSc1nc2ccccc2s1)C(=O)NC(N)=O (centres undefined)	2	1.4
COc1ccc(N2CC(C(=O)N(C)CC(=O)Nc3ccc(Cl)c(C(F)(F)F)c3)CC2=O)c(OC)c1 (centres undefined)	1.7	-3.9
CCc1ccc(NC(=O)CSc2nc(O)cc(=O)n2C2CCCC2)cc1	1.3	-0.51
COc1cccc(N(CC(=O)NCC2CCCO2)C(=O)CNS(=O)(=O)c2ccccc2)c1 (centres undefined)	0.22	-1.8
CC(=O)NNc1cc(C)nc(N)n1	1.6	0.85
CC(C)CCNC(=O)NC(=O)COC(=O)CCN=C1NS(=O)(=O)c2ccccc21	1.3	0.5
CCN(CC(=O)Nc1c(F)cccc1F)C(=O)c1cccc(S(=O)(=O)N(C)c2ccccc2)c1	1.3	-1.4
CC(C)n1c(=S)[nH]c2cc(Cl)ccc21	1.9	1.7
Cc1ccc(NC(=O)Cc2ccccc2)c(C)c1	6.4*	0.9*
Cc1cc(/C=C2/C(=O)NN(c3ccccc3)C2=O)c(C)n1-c1ccc(O)cc1	0.45	-1.3
CCCN(CCO)Cc1ccc(F)c(Br)c1	0.6	-0.01
COc1ccc(NC(=O)Cn2nnc(C(=O)NCCc3ccc(OC)c(OC)c3)c2N)cc1	0.28	-1.6
O=C(O)CC(SCC(=O)Nc1ccc(Br)cc1)C(=O)O (centres undefined)	0.82	1
O=C1C2=C(c3ccccc31)[N+](=O)C1CCCCC1N2[O-] (centres undefined)	0.61	0.56
CCOC(=O)c1c(C)c(C(=O)N2CCCCCC2)c(C)n1CC	0.51	-1.3
COc1ccc(/C=N/NC(=O)c2cc(-c3ccc(C)cc3C)nc3ccccc23)cc1COC(C)=O	0.94	0.24
O=C(NNc1ccccn1)C(c1ccccc1)c1ccccc1	0.17	-0.88
COC(=O)Cc1cc(=O)[nH]c(/N=C(\N)Nc2ccc(C)cc2)n1	0.27	0.89
COc1ccc(C(=O)Nc2ccc(N3CCN(C(=O)c4ccccc4C)CC3)cc2)cc1	1.1	-2.1
O=C(CCC(=O)N1CCOc2ccccc21)NCCCN1CCOCC1	0.13	-0.98
COCCNC(=O)/C(C#N)=C\c1ccc(CNS(=O)(=O)c2ccccc2)o1	0.01	-1.5
CC(=O)c1ccc(NC(=O)c2cc(S(=O)(=O)N3CCOCC3)ccc2C)cc1	0.95	-0.55
Cc1cc(C)c(C#N)c(N2CCSCC2)n1	1.1	0.32
CC(=O)N1CCN(S(=O)(=O)c2cccc(C(=O)Nc3ccccc3N3CCOCC3)c2)CC1	0.33	1
Cc1ccc2c(Cl)cc(Cl)c(OCC(=O)NC3CCS(=O)(=O)C3)c2n1 (centres undefined)	0.26	0.28
Next part:
SMILES	KCNQ2 pot	KCNQ2 pot baseline
Cc1ccc(C)n1NC(=O)c1ccc(Cl)cc1Cl	0.44	1.8
N#CCSc1nnc(-c2cccnc2)n1-c1ccccc1	1.2	-2.5
CCN(CC(=O)Nc1ccc2c(c1)OCCO2)C(=O)/C=C/c1ccccc1	1.5	0.09
CNC(=O)C1CC(=O)N(Cc2ccccc2)C(=Nc2ccc(OC)cc2)S1 (centres undefined)	0.38	-0.8
CC(=O)N1CCc2ccc(S(=O)(=O)N3CCN(C)CC3)cc21	0.44	-0.46
NC(=O)CSc1nc(C2CC2)nc2sc3c(c12)CCCC3	0.32	1.6
COC(=O)C1(NC(=O)NC2CCCCC2)CCCCC1	2.5	-0.27
COC(=O)Cn1cnc2sc3c(c2c1=O)CCCC3	0.93	-0.58
C=CCNCCOCCOc1ccc(C)cc1Br	0.12	2.2
CN(C)/C=C1\SC(=S)N(N2C(=O)C3C4C=CC(C4)C3C2=O)C1=O (centres undefined)	0.54	-2.1
CCN(CC(=O)NCc1ccc(F)cc1)C(=O)/C=C/c1ccc(S(=O)(=O)N(CC)CC)cc1	1.3	-0.76
Cc1occc1C(=O)Nc1ccc2ccccc2c1	13*	0.64*
CCO/C(=C/c1sc2ccc(OC)cc2[n+]1CCCS(=O)(=O)[O-])CC	0.86	1.5
O=C(COC(=O)Cc1ccccc1F)NCCNC(=O)COC(=O)Cc1ccccc1F	2.4	2.1
Cc1nnc(SCC(=O)Nc2sccc2C#N)s1	0.67	0.85

Single records, as listed above.
`O=C(CN1C(=O)C2CC=CCC2C1=O)NCC(=O)Nc1ccc(F)c(F)c1` (centres undefined) across the screens: KCNQ2 pot: 0.11; KCNQ2 pot baseline: -0.21
`CC(=O)Nc1ccc(-c2cc(C(=O)O)c3ccccc3n2)cc1` across the screens: KCNQ2 pot: 0.26; KCNQ2 pot baseline: 0.38

(continued)
SMILES	KCNQ2 pot	KCNQ2 pot baseline
CC(C)(C)CC(=O)Nc1cc2c3c(c1)CCC(=O)N3CCC2	1.2	0.13
Cc1nc(C(=O)N(C)C)nn1-c1ccc(Cl)cc1Cl	0.93	0.47
Cc1ccc(Cl)cc1N1CCN(C(=O)CCS(=O)(=O)c2ccc3c(c2)NC(=O)CO3)CC1	2.4	1.2
NC(=O)C1CCN(c2ncnc3c2c(-c2ccccc2)cn3-c2ccccc2)CC1	1.1	-1.5
Cc1ccc(S(=O)(=O)N2CCOCC2)cc1NC(=O)COC(=O)CCC(=O)c1cccs1	0.14	-0.18
Cc1sc2ncnc(SCC(=O)N3CCCC3=O)c2c1C	0.61	1.5
CCOc1ccccc1N(CC(=O)NCC1CCCO1)C(=O)CCC(=O)Nc1cc(C)on1 (centres undefined)	0.48	1.4
Cc1ccccc1OCC(=O)NC(=S)Nc1ccc(N2CCOCC2)c(Cl)c1	0.89	0
O=C(COC(=O)CCSc1ccccc1Cl)Nc1ccc(F)cc1F	0.48	-1.6
COc1ccc(C#Cc2c(-c3ccc(OC)cc3)oc3ccc(-c4ccc(OC)cc4)cc23)cc1	0.54	-1.6
COCCNC(=O)c1ccc2c(=O)n(CCCN3CCCC3=O)c(=S)[nH]c2c1	2.8	1.3
CCN(CC)CCCNC(=O)c1nn(-c2ccc(OC)cc2OC)c(=O)c2ccccc12	0.06	0.37
Cc1ccc2cc(C#N)c(SCC(=O)NCC3CCCO3)nc2c1 (centres undefined)	1.2	1.1
O=C1/C(=C/c2cccnc2)SC(=S)N1c1ccc(O)cc1	0.44	2
Cc1ccc(NC(=O)CCC(=O)N/N=C/c2ccccc2O)cc1	1.3	-1.3
COc1ccc(N2CCN(c3ncnc4sc(C(=O)NCC5CCCO5)c(C)c34)CC2)cc1 (centres undefined)	0.7	-0.85
COC(C/C=C/[C@@H](O)[C@@H](C)OCc1ccccc1)OC	1.4	0.24
C=CCNC(=O)c1onc(CSc2cccc(OC)c2)c1C(=O)NCC=C	1.2	1.6
COc1ccccc1CC(=O)NCCc1c[nH]c2ccccc12	0.42	1.2
CCCCN(C(=O)CSCc1c(C)noc1C)c1c(N)n(CCCC)c(=O)[nH]c1=O	0.6	0.26
CCc1ccc(NC(=O)C2CCN(C(=O)N3CCOc4ccccc43)CC2)cc1	0.57	2.5
COc1cc(NC(=O)c2c3c(nc4ccccc24)CCC3)cc(OC)c1	0.17	-0.52
CC(C)Oc1ccc(CCC(=O)N/N=C/c2ccc3c(c2)OCO3)cc1	0.55	0.9
O=C(O)c1cc(S(=O)(=O)N(Cc2ccccc2)c2ccc(Cl)cc2)ccc1Cl	0.61	0.09
COc1ccc(CCNC(=O)c2noc(C(C)C)c2[N+](=O)[O-])cc1OC	0.35	-1.7
CCOC(=O)C1(C)/C(=N/Nc2ccc(S(N)(=O)=O)cc2)C(=O)C(=O)N1c1ccccc1 (centres undefined)	0.6	-0.36
Cc1c(C(=O)NC2=NCCS2)cccc1[N+](=O)[O-]	0.64	-0.17

By substructure, the compounds so far with a tert-butyl group
SMILES	KCNQ2 pot	KCNQ2 pot baseline
CC(C)(C)OC(=O)NCCCC[C@H](NC(=O)c1nc[nH]c1C(=O)NCc1ccc(CNC(=O)OC(C)(C)C)cc1)C(=O)OC(C)(C)C	0.03	-1.3
CC(C)(C)CC(=O)Nc1cc2c3c(c1)CCC(=O)N3CCC2	1.2	0.13
